Screening data (PubChem)
Calb FLC = affects C. albicans growth with fluconazole | C. albicans CaCi-2 (fluconazole-resistant clinical isolate) + fluconazole, Alamar Blue growth, 48 h | growth inhibition, % (concentration not given with the values) | actives 0.57% (n = 300,000);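 active = most replicates above 75%; inconclusive = exactly half above 75%; inactive = most below 75%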;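 note: all wells also contain fluconazole at 8 µg/ml as a sub-toxic cotreatment; 0% = median of DMSO wells and 100% = median of geldanamycin control wells; wells of about 8 µL received 7.5 nL stock; the first replicate is given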
Beta apoptosis = beta cell apoptosis inhibition; actives 0.8% (n = 300,000); AID 435005; INS-1E cytokine-induced death, ATP luminescence, 48 h; percent of positive-control rescue, neutral wells zero; protection from apoptosis, % (test concentration not listed);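 active = all replicates at 75% or more, or half of them and the mean; inconclusive = half reach 75% but not the mean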;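 note: 0% = cytokine-treated negative control wells and 100% = positive control rescue; higher means more ATP so stronger rescue from cytokine killing; wells of about 40 µL received 100 nL stock; the first replicate is given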
Vif TR-FRET = inhibitors of Vif binding to APOBEC3G peptide, primary screen, biochemical, TR-FRET, GST-Vif 1-94, biotin-A3G peptide, dose response retest (AID 1117319). actives 0.57% (n = 260,000). one-dose inhibition, %; IC50 in µM for titrated hits. TR-FRET GST-Vif / biotin-A3G peptide binding; higher % means a stronger effect; test concentration not given here; strong numbers were not always called active;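 active = above the screen mean plus three standard deviations and confirmed in dose response; inconclusive = results disagree or hit not tested in dose response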;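 note: Vif residues 1-94 fused to GST binding biotinylated APOBEC3G peptide 110-148; 0% = full assay without inhibitor and 100% = GST in place of GST-Vif; retest series ran down from 100 µM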
RanGTP-Imp inh = disruptors of Ran-importin-beta complex formation – biochemical, FRET, CFP-Ran, YFP-importin-beta, homogeneous, primary screen. cell-free CFP-Ran/YFP-importin-beta FRET ratio. inhibition, % (concentration not given with the values). actives 1.1% (n = 300,000);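 active = most replicates above 15%; inconclusive = exactly half above 15%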;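 note: 0% = DMSO wells and 100% = Ran loaded with GDP instead of GTP; wells of about 40 µL received 100 nL stock; the first replicate is given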
Ecoli rRNA inh = selective bacterial rRNA inhibition in E. coli; E. coli WT GFP vs humanized-ribosome RFP mutants, fluorescence, 24 h; stronger effect = lower value; DMSO median 0, no signal -100; AID 720706; actives 1.6% (n = 350,000); GFP signal change (wild-type ribosome), % (concentration not given with the values);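 active = significant combined selectivity score with lowered wild-type GFP, culture density cut under 30%, mutant RFP and density less affected; inactive = any of these conditions unmet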; note: one replicate is shown; some compounds called inactive have numbers as strong as hits
MLL AF4-AF9 inh = blocks AF4 peptide binding to human AF9 | P42568 | AlphaScreen, biotin-AF4 peptide binding to FLAG-AF9 | inhibition, % at 10 µM | actives 0.47% (n = 350,000);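 active = every replicate reaching a set inhibition limit, whatever the replicate mean, cut at about 25% in these data; inconclusive = mean inhibition reaches that limit but some replicates miss it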;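 note: 0% = plate neutral control median and 100% = total signal loss; the record names both 10 and 1 µM as test concentration; the first replicate is given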
Target sequence (P42568 whole entry, looked up): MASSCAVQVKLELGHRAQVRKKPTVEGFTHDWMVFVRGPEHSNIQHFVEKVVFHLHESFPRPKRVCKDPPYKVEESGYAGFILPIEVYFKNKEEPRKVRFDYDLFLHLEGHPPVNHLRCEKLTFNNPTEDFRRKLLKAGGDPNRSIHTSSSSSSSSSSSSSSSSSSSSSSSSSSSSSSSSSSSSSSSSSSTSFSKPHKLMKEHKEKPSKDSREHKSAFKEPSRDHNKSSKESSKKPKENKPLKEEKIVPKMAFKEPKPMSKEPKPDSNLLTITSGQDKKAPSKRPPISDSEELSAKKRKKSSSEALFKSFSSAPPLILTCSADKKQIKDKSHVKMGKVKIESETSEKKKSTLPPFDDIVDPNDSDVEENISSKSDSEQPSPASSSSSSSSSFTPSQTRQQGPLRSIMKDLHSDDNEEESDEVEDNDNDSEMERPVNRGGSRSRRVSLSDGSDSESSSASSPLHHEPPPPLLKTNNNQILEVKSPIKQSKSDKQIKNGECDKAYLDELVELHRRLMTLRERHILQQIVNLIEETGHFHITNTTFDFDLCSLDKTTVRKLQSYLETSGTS
T cruzi inh = blocks replication of Trypanosoma cruzi | T. cruzi beta-gal in NIH3T3, luminescence, 90 h | inhibition, % (no concentration beside the values) | actives 1.4% (n = 300,000);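 active = mean inhibition across valid replicates above about 55%, limit read from the data; inconclusive = mean below that limit but half or more replicates reach it; inactive = mean below it, under half of replicates reach it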;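 note: signal also drops with host cell toxicity which is not excluded here; 0% = plate median of DMSO wells and 100% = zero luminescence signal; higher percent means less beta-gal luminescence so fewer parasites; stock transfer was 50 nL into about 50 µL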
A1 inh = inhibitors of the anti-apoptotic protein A1, read as caspase activation | caspase activation, % (concentration not given with the values) | actives 0.066% (n = 330,000) | MEF A1-2A-BIM cells, Caspase-Glo 3/7 luminescence, 3 h; percent of clofoctol response, vehicle zero;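 active = over half of replicate activation scores above 10%, or exactly half above 10 with the replicate mean above 10; inconclusive = replicate mean below 10 yet half the replicates above 10; inactive = over half of replicates below 10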;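 note: wells of about 30 µL received 50 nL stock; many hits fall short of the cut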
Ecoli rRNA inh OD600 = recorded beside Ecoli rRNA inh, whose call it bears; OD600 change, %; measured here: OD600 growth;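 optical density of the mix in the first replicate; 0 = DMSO median and -100 = no signal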
Ecoli rRNA inh RFP = further read-out of Ecoli rRNA inh, marked with its call; RFP signal change, %; measured here: RFP humanized mutant strains;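 first replicate; 0 = DMSO median and -100 = no signal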
Starred values were filed as active, the others as inactive; ? = inconclusive; nt = no result given; & = joins results of further samples. This is a subset. The share of hits here may be higher or lower than overall.

canonical_smiles	Calb FLC	Beta apoptosis	Vif TR-FRET	RanGTP-Imp inh	Ecoli rRNA inh	Ecoli rRNA inh OD600	Ecoli rRNA inh RFP	MLL AF4-AF9 inh	T cruzi inh	A1 inh
COC(=O)c1ccc(NC(=O)C(=O)N2CCN(C(=S)Nc3cccc(OC)c3)CC2)cc1	-13	-1	nt	-0.4	nt	nt	nt	nt	-7	0.9
COc1ccc(NC(=O)C(c2ccc(C)cc2)N(C)C(=O)Cc2cccs2)cc1 (stereo unspecified)	23	-3	4%	4.3	-18	-49	-8.3	8.6	-1	-0.2
O=C(CNC(=O)C1CCCC1)Nc1ccccc1Br	nt	0	1%	nt	4	14	0.6	-2.2	nt	0.2
COc1ccc(-c2cc(C(=O)Nc3cc(OC)c(OC)c(OC)c3)no2)cc1	7	-1	-2%	-5.5	6	10	1.0	-1.2	-4	0.2
CC1(C)Nc2ccccc2C(=O)N1c1ccccc1	1	-2	nt	-0.4	9	6	0.6	-3.2	-2	-0.3
Cc1cc(-c2csc(NC(=O)c3cc4ccccc4o3)n2)c(C)n1C	-26	-3	49µM*	4.4	nt	nt	nt	nt	-22	-0.7
CC1(C)OC(=O)C=C(CC2NS(=O)(=O)OC3CCCCC23)O1 (stereo unspecified)	0	-2	nt	-3.3	9	10	3.9	-3.7	-12	-0.5
Cc1ccc(NC(=O)c2cccc3c2C(=O)N(C2CCCCC2)C3)cc1	4	2	7%	-1.9	nt	nt	nt	nt	28	1.0
Nc1ccc(Nc2ccccc2N)cc1	30	43	13%&26%	nt	nt	nt	nt	nt	-7	-0.1
O=C(c1ccccc1-c1nc(-c2ccc(Cl)cc2)no1)N1CCCC1	-8	3	3%	2.9	-6	-1	-0.5	-29	21	-0.2
O=C1CC(c2ccc(F)cc2)C(n2cncn2)C(O)=C1C1NCCc2ccccc21 (stereo unspecified)	23	-6	nt	4.2	5	19	-1.6	1.5	-3	0.5
O=C1CCCCC1C(Nc1ccc(Br)cc1)c1ccccc1 (stereo unspecified)	?	-1	-2%	-4.2	nt	nt	nt	nt	-20	-0.5
O=C(OCCN=C1NS(=O)(=O)c2ccccc21)c1cccc([N+](=O)[O-])c1	-2	-7	nt	1.2	-1	-2	1.2	6.9	-2	0.0
COc1ccnc(Oc2ccc(C)cc2C)c1C#N	-7	5	1%	1.4	nt	nt	nt	nt	5	-1.9
O=C(Nc1nc(-c2nc3ccccc3s2)cs1)C1COc2ccccc2O1 (stereo unspecified)	2	4	-15%	-0.1	-10	-18	2.6	2.8	-2	-0.1
COc1cc(SC)ccc1C(=O)OCC(=O)N1CC(=O)Nc2ccccc21	nt	2	2%	nt	-4	-14	-6.8	-1.2	nt	-1.3
COc1ccc(Cc2nnc(NC(=O)c3ccccc3Cl)s2)cc1OC	1	-9	nt	-3.4	-2	7	-2.7	-12	10	-0.6
CCN(C(=O)CN1C(=O)c2ccc([N+](=O)[O-])cc2C1=O)C1CCCCC1	-5	3	13%	-3.6	2	2	0.2	2.9	5	0.6
Cc1ccnc(Sc2ccc([N+](=O)[O-])cn2)n1	1	-1	1%	0.6	nt	nt	nt	nt	-22	-0.2
C/C(=N\NC(=O)C1CC1)c1ccc(C(C)(C)C)cc1	7	-10	-1%	nt	18	16	-1.0	1.7	nt	0.6
O=P(CCN1CCCCC1)(c1ccccc1)c1ccccc1	-16	9	-1%	0.8	nt	nt	nt	nt	-10	1.0
CC1CCN(c2ccc([N+](=O)[O-])c(SCCO)c2)CC1	7	-2	72%	3.5	-42	-65	4.0	7.8	0	0.2
COc1ccc(OC)c(NC(=O)Cn2c(-c3ccc(Cl)cc3)noc2=O)c1	3	7	10%	-0.2	nt	nt	nt	nt	7	0.3
Cc1nc(C(=O)Nc2ccc(F)cc2)nn1-c1ccc([N+](=O)[O-])cc1	4	-2	-1%	-1.4	nt	nt	nt	nt	0	0.0
N#Cc1ccc(Oc2ccc(/C=N/O)cn2)cc1	-2	nt	1%	1.5	nt	nt	nt	nt	-13	-0.6
Oc1ccccc1OCc1nc2ccccc2s1	-2	nt	14%	-3.2	nt	nt	nt	nt	16	-6.0
C=CCN1C(=O)/C(=C/c2ccc(OC)cc2)S/C1=N/c1nccs1	10	1	nt	6.4	nt	nt	nt	nt	-8	-0.2
COc1cc2nc(N(CCCN(C)C)C(=O)c3ccc(C(=O)c4ccccc4)cc3)sc2cc1OC	-15	nt	-4%	-3.9	-4	1	10.0	28*	44	0.4
CC(=O)c1c(C)[nH]c(C(=O)Nc2ccccc2Cl)c1C	24	-6	nt	-3.0	-5	-14	3.6	1.9	4	-0.6
CCOC(=O)/C(=N/Nc1ccccc1)Sc1nnc(CCc2ccccc2)n1-c1ccccc1	13	-1	-2%	nt	1	3	0.5	3.0	31	-0.1
Cc1c(C(=O)N2CCCC2)c(S(=O)(=O)NCC(C)c2ccccc2)c(C)n1C (stereo unspecified)	-1	-3	nt	4.2	5	2	-1.6	1.6	-5	1.2
CCn1c(Cc2ccccc2)nnc1SCC(=O)N1CCCCC1	0	-2	18%	4.3	nt	nt	nt	nt	-1	-0.5
C#CCSc1nnc(-c2ccc(OC)cc2)o1	3	4	-1%	3.1	nt	nt	nt	nt	-55	-2.4
Cc1ccc2c(c1)NC(=O)c1cccc([N+](=O)[O-])c1CO2	-5	0	nt	2.2	8	2	1.1	-3.2	-11	0.1
Cc1nnc(SCC(=O)NN2C(=O)NC3(CCCCC3)C2=O)s1	1	-2	nt	3.0	10	3	-2.0	-61	-5	3.4
CN1C=CC=C/C1=C1\SC(=S)N(C2CCCCC2)C1=O	-8	0	9%	2.5	nt	nt	nt	nt	12	-0.4
O=C(NC1CC1)C1CCN(C2CCN(C(=O)/C=C/c3cccc(F)c3F)CC2)CC1	-17	-2	nt	4.2	1	5	5.0	4.9	12	0.6
COc1ccc(Cl)cc1NC(=O)CN(C)C(=O)CCc1nc2ccccc2c(=O)[nH]1	nt	6	3%	nt	0	4	-0.7	1.7	nt	0.7
Cc1c(C)c2ccc(O[C@@H]3O[C@H](CO)[C@H](O)[C@H](O)[C@H]3O)c(C)c2oc1=O	-3	2	52%	-6.2	-6	-2	-4.1	-0.1	-7	0.2
COCCNC(=O)C(c1ccc(Cl)cc1)N(C(=O)Cn1nnc2ccccc21)c1cccnc1 (stereo unspecified)	19	2	25%	4.9	nt	nt	nt	nt	-17	0.0
Cc1cc(C)nc(NS(=O)(=O)c2ccc(NC(=O)Cn3c(=O)oc4ccccc43)cc2)n1	2	nt	1%	3.1	8	7	4.9	-0.1	11	0.4
CCn1c(SCC(=O)N/N=C/c2ccccc2OCC(=O)O)nnc1-c1ccccc1	1	-7	18%	-1.1	nt	nt	nt	nt	-4	0.1
CCNC(=S)NN=C1CCC(C(C)(C)C)CC1 (stereo unspecified)	-26	-11	30%	-2.8	7	8	1.3	nt	-6	-0.2
Cc1cc2nc(-c3ccc(SCC(=O)NC(C)C)nc3)[nH]c2cc1C	-4	7	-120%	0.6	nt	nt	nt	nt	5	-2.0
Cc1ccc(-n2nc3c(=O)n(CCCC(=O)NCCc4ccccc4)nc(C)c3c2C)cc1	25	-3	nt	5.5	14	1	-8.0	-7.4	-5	0.4
CCOC(=O)N1CCC(NC(=O)CS(=O)(=O)Cc2nc(-c3cccc(Cl)c3)oc2C)CC1	-3	-5	-6%	4.4	1	10	-0.3	-5.8	-1	-0.1
COc1ccc(S(=O)(=O)N[C@@H](CSCc2ccccc2)C(=O)O)cc1	-4	-1	0%	nt	7	-4	3.8	-3.1	nt	-0.9
COc1ccc(CNC(=O)CSc2nnnn2-c2ccc(O)cc2)cc1	6	-5	6%	-4.5	nt	nt	nt	nt	3	0.1
Cc1cc2[nH]c(=O)c(=O)[nH]c2cc1S(=O)(=O)N1CCN(c2ccccc2F)CC1	81*	-3	nt	1.2	6	2	-2.3	-0.8	-22	0.9
CC1CCC(NC(=O)CN2C(=O)NC(C)(C)C2=O)CC1 (stereo unspecified)	-6	2	-4%	?	11	20	-2.5	-50	-25	-1.3
COc1ccccc1C(=O)NC(=S)Nc1ccc2[nH]c(=O)[nH]c2c1	-4	-7	nt	-3.1	-2	2	-0.3	-1.8	-2	-2.3
Cc1ccc(CNC(=O)c2ccccc2CCc2ccccc2)cc1	-9	-1	-3%	?	11	0	4.2	2.9	20	0.9
CN(CC(=O)N1CCOCC1)S(=O)(=O)c1cc(Cl)ccc1Cl	-1	-5	nt	-0.5	-2	14	-4.1	-1.8	-2	-0.9
Cc1ccc(NC(=O)C2OCCc3ccccc32)cc1 (stereo unspecified)	-24	3	nt	-2.2	-4	-12	-3.0	-1.6	-2	0.1
O=C1COc2ccc(C(=O)COC(=O)CCSc3ccccc3)cc2N1	-1	-8	nt	1.0	7	0	-7.1	-39	-10	-0.2
S=C(NNc1cccc(Cl)c1)NC1CCCCC1	-21	-2	nt	-2.0	-28	-32	6.5	4.7	-7	-0.3

(more compounds)
canonical_smiles	Calb FLC	Beta apoptosis	Vif TR-FRET	RanGTP-Imp inh	Ecoli rRNA inh	Ecoli rRNA inh OD600	Ecoli rRNA inh RFP	MLL AF4-AF9 inh	T cruzi inh	A1 inh
CC1=CC(=C2N=C(c3ccccc3)OC2=O)C=C(C)O1	1	-1	6%	9.4	9	12	2.4	nt	15	-0.2
O=C(O)CCCC(=O)Nc1ccccc1-n1ccnc1	6	-1	7%	2.2	nt	nt	nt	nt	-11	-0.6
Cc1cc(OCc2nn[nH]n2)c2c(C)c(CC(=O)O)c(=O)oc2c1	0	-2	1%	2.2	nt	nt	nt	nt	-10	0.9
COc1ccc(CCn2c(-c3ccc(F)cc3)nc3c(c(=O)c4ccccc4n3C)c2=O)cc1OC	-2	3	nt	-0.4	nt	nt	nt	-1.4	13	2.7
Cc1cc(OC(C)C(=O)NCc2ccncc2)c2c(C)cc(=O)oc2c1 (stereo unspecified)	7	-5	nt	0.4	6	2	-4.0	2.2	-12	0.5
CN1CCN(C(=O)C2=C[C@@H](c3ccccc3)C[C@@H](OCc3ccc(CO)cc3)O2)CC1	-4	nt	nt	0.3	-3	-4	0.5	-1.1&0.5	-22	2.2
CSc1nc2ccc(NC(=O)c3ccc(Cl)s3)cc2s1	nt	-8	-96%	nt	4	8	1.1	-7.9	nt	-2.5
CCOC(=O)c1c(C)[nH]c(C)c1S(=O)(=O)NCc1ccccc1C	-10	-6	7%	2.6	-6	-12	1.9	-1.2	-15	0.7
COc1cc(C(=O)NNC(=O)c2ccc(F)cc2)ccc1OCC(=O)N1CCOCC1	nt	-3	-2%	nt	7	20	-1.7	-0.3	nt	2.6
CCCCN(C(=O)c1cc(Cl)nc2ccccc12)c1c(N)n(CCCC)c(=O)[nH]c1=O	1	0	9%	1.0	9	9	1.2	-2.5	-1	0.0
O=C(NCCN1CCOCC1)C(=O)NCC1OCCCN1S(=O)(=O)c1cc(F)ccc1F (stereo unspecified)	0	-6	nt	-0.1	8	14	-2.6	-3.0	-6	0.2
